RE007 growth inh = less growth of the S. pombe RE007 Vpr strain; S. pombe RE007 Vpr strain, BacTiter-Glo ATP luminescence, 24 h; control for the full effect not named in the record; Potency, µM (series often up to 92.2 µM), inactives show at the top dose activity change, negative = less growth; actives 0.21% (n = 360,000); AID 651644; active = well fitted falling curve with a large enough effect; inconclusive = small, poorly fitted or top-dose-only effect; inactive = no such curve, though single readings can be large or run the other way;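 further: on the % scale 0 is the no-effect control and ±100 the full control effect; nearly all actives have a fitted effect of over 50% in size; the assay follows cell death caused by Vpr and the record does not say whether a fall means rescue or toxicity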
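Fission yeast RE007 carrying one integrated HIV-1 vpr copy, seeded at OD 0.01 in PMG+AL medium with 23 nL pinned compound. Grown 24 h at 30 degrees; viability read by BacTiter-Glo luminescence after 5 min.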
Cruzain inh Det = inhibitors of Trypanosoma cruzi cruzain with detergent; actives 0.43% (n = 200,000); purified cruzain, Z-FR-AMC fluorescence, 0.01% Triton; Potency, µM, inactives show max response, negative = inhibition, actives largely listed as inhibitors; P25779;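 further: plate controls were neutral wells for no effect and buffer without enzyme for full effect; nearly all actives have a fitted effect of over 40% in size; top concentration of the series not given in the record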
Target sequence (P25779 123-467 limits assumed): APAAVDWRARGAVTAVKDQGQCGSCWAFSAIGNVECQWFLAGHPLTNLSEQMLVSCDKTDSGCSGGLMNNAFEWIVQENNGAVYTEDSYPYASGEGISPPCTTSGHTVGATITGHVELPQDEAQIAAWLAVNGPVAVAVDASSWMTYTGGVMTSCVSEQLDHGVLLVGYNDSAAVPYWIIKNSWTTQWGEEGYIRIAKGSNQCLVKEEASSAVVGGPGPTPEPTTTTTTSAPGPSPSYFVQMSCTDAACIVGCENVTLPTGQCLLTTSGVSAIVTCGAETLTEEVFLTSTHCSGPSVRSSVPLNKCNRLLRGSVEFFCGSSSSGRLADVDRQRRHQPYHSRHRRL
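Cruzain (1.5 nM) preincubated 15 min at RT with compound in 100 mM sodium acetate pH 5.5, 5 mM DTT, 0.01% Triton X-100. Reaction started with 2 uM Z-FR-AMC; AMC fluorescence (ex 360/em 450 nm) change over 60 s gave rate.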
Cruzain inh noDet = inhibitors of Trypanosoma cruzi cruzain without detergent; P25779; purified cruzain, Z-FR-AMC fluorescence, no detergent; Potency, µM, inactives show max response, negative = inhibition, usual class: inhibitors; actives 2.3% (n = 200,000); AID 1476;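 further: plate controls were enzyme without inhibitor for no effect and buffer without enzyme for full effect; nearly all actives have a fitted effect of over 40% in size; top concentration of the series not given in the record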
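Detergent-free condition (0.00005% Triton X-100) in acetate buffer pH 5.5 with DTT. 1.5 nM enzyme and compound were pre-mixed 15 min, then 2 uM Z-FR-AMC substrate added; reaction progress from fluorescence change between first and third reads (60 s).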
StopGo reporter = lowers the luciferase signal of an FMDV 2A StopGo reporter; actives 1.2% (n = 410,000); human cells with a luciferase reporter of 2A StopGo recoding; control for the full effect not named in the record; Potency, µM (highest dose often 57.9 µM), inactives show top-dose signal change, negative = less light; AID 1159524; active = well fitted falling curve with a large enough effect; inconclusive = small, poorly fitted or top-dose-only effect; inactive = no such curve, though single readings can be large or run the other way; tested in HEK293T cells; further: on the % scale 0 is the no-effect control and ±100 the full control effect; nearly all actives have a fitted effect of over 45% in size; luciferase light after 4 h
MARV entry inh = blocks Marburg virus binding to or entry into cells. Potency, µM (highest dose often 37.8 µM), inactives show at the top dose activity change, negative = inhibition, actives largely listed as inhibitors. Marburg virus pseudotyped entry inhibition, cell reporter; control for the full effect not named in the record; about a third of the inactives were read at about 46 µM. AID 540276. actives 1.8% (n = 300,000); active = well fitted inhibition curve with a large enough effect; inconclusive = small, poorly fitted or top-dose-only effect, or effect the other way; inactive = flat fitted curve, though single readings scatter; tested in HEK293 cells; about a fifth of its hits are not listed in these tables; further: on the % scale 0 is the no-effect control and ±100 the full control effect; luciferase read-out
LASV entry inh = Lassa virus entry inhibition. Lassa virus pseudotype entry inhibition, cell reporter; control for the full effect not named in the record. actives 1.2% (n = 300,000). Potency, µM (top dose mostly 37.9 µM), for inactives: at the highest dose activity change, negative = inhibition, usual class: inhibitors; active means well fitted inhibition curve with a large enough effect; inconclusive means small, poorly fitted or top-dose-only effect, or effect the other way; inactive means flat fitted curve, though single readings scatter; tested in HEK293 cells; further: on the % scale 0 is the no-effect control and ±100 the full control effect; nearly all actives have a fitted effect of over 50% in size; luciferase read-out
NS1 inh = influenza NS1 inhibition; S. cerevisiae slowed by influenza A NS1, growth recovery by OD600; Potency, µM (series often up to 46.1 µM), for inactives: top-dose activity, positive = more growth; actives 0.4% (n = 270,000); active means well fitted rising curve with a large enough effect; inconclusive means small, poorly fitted or top-dose-only effect; inactive means no such curve, though single readings can be large or run the other way; further: nearly all actives have a fitted effect of over 50% in size
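S. cerevisiae expressing influenza A NS1, grown in glucose, washed, then diluted 1:100 into pH 6.0 -URA galactose medium with 23 nl compound. Growth recovery read as OD600; NS1-free strain serves as control.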
SARS PLP yeast = blocks SARS-CoV papain-like protease in a yeast assay. S. cerevisiae expressing SARS-CoV PLpro, growth rescue; control for the full effect not named in the record. Potency, µM (doses to about 32.9 µM), inactives show top-dose activity, positive = growth rescue. actives 0.19% (n = 330,000). AID 485353; active means well fitted rising curve with a large enough effect; inconclusive means small, poorly fitted or top-dose-only effect; inactive means no such curve, though single readings can be large or run the other way; further: 0% is about no effect; nearly all actives have a fitted effect of over 55% in size; growth read by luminescence after 48 h
An asterisk follows results filed as active; & = joins results of further samples; [ ] = remark or other dose. Unless noted, the call rests on the fitted dose curve; in most records, active means well fitted curve in the direction sought with a large enough effect; inconclusive means small, poorly fitted or top-dose-only effect, or another doubt; inactive means no such curve, though single readings can be large; an effect the other way counts as inactive or inconclusive. Potency means the concentration at half of the fitted maximal effect.

How did c1ccc(-c2nc(N3CCNCC3)nc3ccccc23)cc1 do in these assays?
RE007 growth inh: -14%; Cruzain inh Det: 0.5%; Cruzain inh noDet: 4%; StopGo reporter: -15%; MARV entry inh: 11%; LASV entry inh: inconclusive; NS1 inh: 12%; SARS PLP yeast: 4%

How did Oc1ccc(C(c2nnnn2C2CCCCC2)N2CCOCC2)cc1 (stereo unspecified) do in these assays?
RE007 growth inh: -12%; StopGo reporter: 6%; MARV entry inh: inconclusive; LASV entry inh: 1%; NS1 inh: 1%; SARS PLP yeast: -1%

Results for Cc1cccc(NC(=O)NNC(=O)c2nn(C)cc2Br)c1 ?
RE007 growth inh: 24%; Cruzain inh Det: 0.1%; Cruzain inh noDet: 17%; StopGo reporter: -11%; MARV entry inh: 22%; LASV entry inh: 26%; NS1 inh: 20%; SARS PLP yeast: -11%

How did O=C(CSc1nc(=O)n(Cc2ccco2)c2c1CCC2)NCc1ccc(Cl)cc1 do in these assays?
Cruzain inh Det: -1.1%; Cruzain inh noDet: -1%; StopGo reporter: 20%; LASV entry inh: -7%[46.1 µM]

How did Fc1ccc(-n2c(-c3ccc4c(c3)OCO4)n[nH]c2=S)cc1Cl do in these assays?
RE007 growth inh: 19%; Cruzain inh Det: 0.3%; Cruzain inh noDet: -4%; StopGo reporter: 38%[activator]; MARV entry inh: 21%; LASV entry inh: 4%; NS1 inh: 12%; SARS PLP yeast: -3%

How did CC(C)N1CC23C=CC(O2)C(C(=O)OCc2ccccc2)C3C1=O (stereo unspecified) do in these assays?
RE007 growth inh: 3%; Cruzain inh Det: 1.0%; Cruzain inh noDet: -6%; StopGo reporter: 1%; NS1 inh: 3%; SARS PLP yeast: 2%

How did CCOc1ccc(N(C(=O)CNC(=O)c2ccco2)C(C(=O)NC2CCCC2)c2ccncc2)cc1 (stereo unspecified) do in these assays?
RE007 growth inh: 5%; StopGo reporter: -8%; MARV entry inh: -18%[46.1 µM]; LASV entry inh: 18%[46.1 µM]; NS1 inh: 0%; SARS PLP yeast: 0%

How did Cc1ccc(C(=O)N(c2ccccn2)C(C)c2ccco2)cc1 (stereo unspecified) do in these assays?
RE007 growth inh: -9%; Cruzain inh Det: 9.0%; Cruzain inh noDet: -2%; StopGo reporter: 77%[activator]; MARV entry inh: 15%; LASV entry inh: 16%; NS1 inh: -4%; SARS PLP yeast: 3%

Results for O=C(Cc1ccccc1)N1CCN=C1SCc1cccc([N+](=O)[O-])c1 ?
RE007 growth inh: 4%; StopGo reporter: 3%; MARV entry inh: -3%[46.1 µM]; LASV entry inh: 1%; SARS PLP yeast: 0%

What do the screens show for `Cc1ccc(-c2c3c(=O)n(C)c(=O)n(C)c3cn2Cc2ccccc2)cc1`?
RE007 growth inh: 5%; Cruzain inh Det: -4.6%; Cruzain inh noDet: 20%; StopGo reporter: -11%; MARV entry inh: inconclusive; LASV entry inh: inconclusive; NS1 inh: 0%; SARS PLP yeast: 0%

Results for O=C(c1ccco1)N1CCN(Cc2nnnn2C2CCCCC2)CC1 ?
RE007 growth inh: -4%; StopGo reporter: 5%; MARV entry inh: -6%[46.1 µM]; LASV entry inh: 4%; NS1 inh: 13%; SARS PLP yeast: 0%

Results for O=Cc1ccccc1-c1cn(CN2C(=O)c3ccccc3C2=O)nn1 ?
RE007 growth inh: 8%; StopGo reporter: -4%; NS1 inh: -5%; SARS PLP yeast: -6%

What do the screens show for `O=C(Cc1c[nH]c2ccccc12)NNC(=O)c1ccccc1`?
RE007 growth inh: -9%; Cruzain inh Det: -3.9%; Cruzain inh noDet: 6%; StopGo reporter: 1%; MARV entry inh: 22%; LASV entry inh: -19%; NS1 inh: 0%; SARS PLP yeast: 9%

What do the screens show for `Cc1c(C#N)c2ccccc2n1C`?
RE007 growth inh: -14%; StopGo reporter: 12%; MARV entry inh: 3%[46.1 µM]; LASV entry inh: 6%[46.1 µM]; NS1 inh: -1%; SARS PLP yeast: 0%

What do the screens show for `O=C1c2ccccc2C(=O)c2c1cccc2-n1nnc2ccccc21`?
RE007 growth inh: -8%; StopGo reporter: -15%; MARV entry inh: 3%[46.1 µM]; LASV entry inh: 8%; NS1 inh: -2%; SARS PLP yeast: -1%

What do the screens show for `COc1ccc(-n2c(=O)c3c(c4cc(OC)ccc4n3C)n(Cc3cc(C)ccc3C)c2=O)cc1`?
Cruzain inh Det: -0.4%; Cruzain inh noDet: 0%; StopGo reporter: -14%; LASV entry inh: 9%[46.1 µM]

What do the screens show for `CC(=O)Oc1cccc(N2C(=O)C3C4C=CC(C4)C3C2=O)c1` (stereo unspecified)?
RE007 growth inh: -4%; Cruzain inh Det: 4.7%; Cruzain inh noDet: 5%; StopGo reporter: 32%[activator]; MARV entry inh: 6%; LASV entry inh: inconclusive; NS1 inh: -5%; SARS PLP yeast: 5%

Results for O=c1c2ccccc2[nH]c(=S)n1-c1ccc2c(c1)OCCO2 ?
RE007 growth inh: -8%; StopGo reporter: 65%[activator]; NS1 inh: 12%; SARS PLP yeast: 1%

What do the screens show for `CCOc1ccc(NC(=O)CCS(=O)(=O)c2cccc3nonc23)cc1`?
Cruzain inh Det: -1.3%; Cruzain inh noDet: 7%; StopGo reporter: -23%; MARV entry inh: inconclusive; LASV entry inh: 13%[46.1 µM]

What do the screens show for `Cc1ccc(NC(=O)Cn2c(=O)n(CCCS(=O)(=O)C3CCCCC3)c(=O)c3ccccc32)cc1F`?
Cruzain inh Det: -1.6%; Cruzain inh noDet: 2%; StopGo reporter: -18%; MARV entry inh: 14%[46.1 µM]; LASV entry inh: -1%[46.1 µM]

How did CCOc1cccc(OCC)c2c(C)[n+](CC3CCCO3)c(C)c1-2 (stereo unspecified) do in these assays?
RE007 growth inh: -3%; Cruzain inh Det: -6.4%; Cruzain inh noDet: 7%; StopGo reporter: -12%; NS1 inh: 7%; SARS PLP yeast: -7%

What do the screens show for `Cc1cccc(C)c1NC(=O)CN(C)S(=O)(=O)c1ccc(-c2ccc(=O)[nH]n2)s1`?
RE007 growth inh: 8%; StopGo reporter: -22%; NS1 inh: inconclusive; SARS PLP yeast: 5%

How did COc1cc(C2/C(=C(/O)c3ccccc3)C(=O)C(=O)N2c2ccccn2)ccc1O (stereo unspecified) do in these assays?
RE007 growth inh: -12%; StopGo reporter: -1%; MARV entry inh: 14%[46.1 µM]; LASV entry inh: 12%; NS1 inh: 11%; SARS PLP yeast: -1%

What do the screens show for `O=C(CC1C(=O)NCCN1Cc1ccccn1)NCCc1ccccc1F` (stereo unspecified)?
RE007 growth inh: -11%; StopGo reporter: 26%; MARV entry inh: 14%; LASV entry inh: 19%; NS1 inh: 0%; SARS PLP yeast: 1%

What do the screens show for `O=C(c1cc2cc(Br)ccc2[nH]1)N1CCC2(CC1)OCCO2`?
RE007 growth inh: -19%; StopGo reporter: 48%[activator]; NS1 inh: -11%; SARS PLP yeast: -3%

What do the screens show for `Cc1nc2ccc(S(=O)(=O)NCC(=O)NCc3ccc4c(c3)OCO4)cc2s1`?
RE007 growth inh: 8%; Cruzain inh Det: 3.2%; Cruzain inh noDet: 3%; StopGo reporter: 8%; MARV entry inh: 0%; LASV entry inh: 4%; NS1 inh: 3%; SARS PLP yeast: 3%

Results for CCn1ncc(Br)c1C(=O)Nc1cc(C)ccc1F ?
RE007 growth inh: inconclusive; Cruzain inh Det: 0.6%; Cruzain inh noDet: -3%; StopGo reporter: -15%; MARV entry inh: -10%; LASV entry inh: -21%; NS1 inh: -49%; SARS PLP yeast: 0%

Results for CC(C)CCNC(=O)[C@H](CSCc1ccccc1)N1Cc2ccccc2C1=O ?
RE007 growth inh: -2%; Cruzain inh Det: -3.5%; Cruzain inh noDet: -4%; StopGo reporter: 8%; MARV entry inh: -15%; LASV entry inh: -18%; NS1 inh: -43%; SARS PLP yeast: 6%

How did C=CCn1c(CNS(=O)(=O)c2ccc(Br)cc2)nnc1SC do in these assays?
RE007 growth inh: 0%; StopGo reporter: -10%; NS1 inh: 1%; SARS PLP yeast: -4%

Results for CCN(C=C1CC2C3CC=C4CC(O)CCC4(C)C3CCC2(C)C1=O)CC (stereo unspecified) ?
RE007 growth inh: 10%; StopGo reporter: -26%; MARV entry inh: -12%[46.1 µM]; LASV entry inh: -4%[46.1 µM]

Results for CO/N=C/C(NC(=O)c1ccc(C(F)(F)F)cc1)C(=O)OC (stereo unspecified) ?
RE007 growth inh: 0%; StopGo reporter: 35%[activator]; MARV entry inh: -19%; LASV entry inh: inconclusive; SARS PLP yeast: -5%

How did COc1cc(C(=O)N2CCC(c3nc(-c4cccnc4)no3)CC2)cc(OC)c1OC do in these assays?
RE007 growth inh: -2%; Cruzain inh Det: -1.6%; Cruzain inh noDet: 0%; StopGo reporter: -3%; MARV entry inh: -15%; LASV entry inh: inconclusive; NS1 inh: 2%; SARS PLP yeast: -6%

What do the screens show for `NS(=O)(=O)c1ccc(C(=O)O)cc1`?
RE007 growth inh: -12%; Cruzain inh Det: -0.4%&1.2%; Cruzain inh noDet: 10%&2%; StopGo reporter: -7%; MARV entry inh: inconclusive; LASV entry inh: -24%; NS1 inh: -1%&0%; SARS PLP yeast: 2%

How did O=C1c2ccccc2C(=O)N1Cc1cccnc1 do in these assays?
RE007 growth inh: 15%; StopGo reporter: inconclusive; MARV entry inh: 8%&8%; LASV entry inh: 4%; NS1 inh: 4%; SARS PLP yeast: 1%

Results for COc1ccc(C(=O)Nc2ccnn2C2CCN(Cc3cccnc3)CC2)cc1 ?
RE007 growth inh: 6%; StopGo reporter: -3%; NS1 inh: -4%; SARS PLP yeast: -4%

Results for COc1ccc(OC)c(NC(=O)Nc2cc(NC(=O)Nc3cc(OC)ccc3OC)c(C)nc2C)c1 ?
RE007 growth inh: -7%; Cruzain inh Det: -3.5%; Cruzain inh noDet: -15%; StopGo reporter: -1%; MARV entry inh: inconclusive; LASV entry inh: inconclusive; NS1 inh: 21%; SARS PLP yeast: 10%

How did O=C(Nc1nc(-c2cccc([N+](=O)[O-])c2)cs1)C(c1ccccc1)c1ccccc1 do in these assays?
RE007 growth inh: 15%; Cruzain inh Det: -3.5%; Cruzain inh noDet: 10µM*; StopGo reporter: -26%; MARV entry inh: inconclusive; LASV entry inh: inconclusive; NS1 inh: 11%; SARS PLP yeast: -3%

Screening results: PubChem BioAssay, National Center for Advancing Translational Sciences (NCATS)

Outcome played no part in choosing rows. Share with any hit: about 4.7%.
